# SmPrx2 inh – Schistosoma mansoni Prx2 inhibition; AID 448; S. mansoni Prx2 activity coupled to TGR/GSH (TGR is thioredoxin glutathione reductase), NADPH fluorescence loss, qHTS; some inactives read as strong as hits; Potency, µM; hit rate 0.07% among 65,000; active means full or partial inhibition curve with a strong effect at the top dose; inconclusive means weaker partial or single-point curve; inactive means no accepted curve; also: series up to 57 µM; many of its hits are not listed in these tables
#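 qHTS, coupled TGR/Prx2 format; 15 min compound preincubation at RT; reaction started with H2O2 (2.5 mM aliquot); kinetic NADPH fluorescence decrease, ex 365/em 450 nm.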
# Anthrax LT inh – anthrax lethal toxin internalization inhibition. hit rate 0.67% among 70,000. AID 912. Potency, µM (titrated, usually from 40 µM), without a hit: at the top dose activity change, negative = inhibition, hits mostly inhibitors. Cells, anthrax lethal toxin internalization, FRET ratio (460/530); active = well fitted falling ratio curve with the 530 nm signal flat; inconclusive = other ratio curves, or a change in one channel alone; inactive = flat curves in the ratio and both channels; the % refers to the ratio; also: % is scaled to controls: 0 for no effect and ±100 for the full control effect; nearly all actives have a fitted effect of over 50% in size; tested in ME-180 cells; beta-lactamase reporter
# * marks the source's active call; other numbers are inactive results; ? = inconclusive; · = no result given; & = joins results of further samples; [ ] = dose if it differs, or a comment. Potency is read from the fitted curve at half-maximal effect. These rows are one share of the data; the hit share may differ from the screen's.
Compound	Anthrax LT inh	SmPrx2 inh
CCN1CCCC1CNC(=O)c1nn(-c2ccc(C)cc2)c(=O)c2c1c1ccccc1n2C (configuration not stated)	-1%	>57
CCOc1ccc(C(C)=O)cc1CSc1nnc(-c2ccoc2C)n1N	-7%	>57
Cc1cc(C)nc(Nc2ccc(N3CCCC3)cc2)n1	-18%	>57
CCn1c(SCC(=O)N2CCCc3ccccc32)nc2c1c(=O)n(C)c(=O)n2C	-8%	>57
CC(C)(C)OC(=O)N1CCC[C@H]1c1nnc(SC/C=C/c2ccccc2)o1	·	>57
COC(=O)CN(c1ccccc1F)S(=O)(=O)c1ccccc1	-5%	·
CN(C)c1ccnc(-c2ccccc2C(F)(F)F)n1	4%	>57
Nc1ncn([C@H]2O[C@@H](CO)[C@@H](O)[C@@H]2O)c(=O)n1	5%[3.58 µM]	>57
O=C(CCC1CCCC1)N1CCN(C(=O)c2cccnc2)CC1	-1%	>57
O=C1CCC(=O)N1CCCCCc1nc(-c2ccccc2)no1	-1%	>57
Cc1nc(SCC(=O)N2CCN(c3ccccc3)CC2)c2oc3ccccc3c2n1	-7%	>57
O=C(c1ccco1)N1CCN(/C(=N/S(=O)(=O)c2cccs2)c2ccccc2Cl)CC1	24%	>57
CCC(=O)Nc1c(C(=O)Nc2cccc(OC)c2)oc2ccccc12	-20%	?
CCC(=O)Nc1ccc(C(=O)Nc2cccnc2)cc1	?	>57
CCOc1ccc(C2CC(c3ccccc3C)n3ncnc3N2)cc1 (configuration not stated)	-6%	?
Cc1nccn1C[C@@H]1CCc2c(c3ccccc3n2C)C1=O	-8%[3.58 µM]	>57
Cc1ccc(S(=O)(=O)NC(=O)Nn2c(C)nnc2C)cc1	-3%	·
O=C1C[C@@H](O)[C@@H](O)[C@H]2[C@@H]3C(=O)N(c4cccc(Oc5ccccc5)c4)C(=O)[C@@H]3CC[C@H]12	14%&0%[8 µM]	·
c1ccc2sc(C3(N4CCCCC4)CCCCC3)cc2c1	25µM*	>57&>57
COc1ccc(OC)c(NC(=O)C2=C(C)Nc3ncnn3C2c2cccs2)c1 (configuration not stated)	0%	>57
COc1cccc(C2CC(C(F)(F)F)n3nc(C(=O)NCc4cccnc4)cc3N2)c1 (configuration not stated)	?	>57
Cc1ccc(-c2noc(CCC(=O)NCC3CCN(Cc4cccc(C)c4)CC3)n2)cc1	-5%	>57
CCOC(=O)c1c(C)n(C)c2ccc(OCC(O)CN3CCCCCC3)cc12 (configuration not stated)	?	>57
C/C(N)=C(/C#N)C(=O)CSc1nnc(NC(C)C)s1	-3%	>57
COc1cccc(-c2ccc3ncnc(NCc4ccccc4)c3c2)c1	?	>57
COC(=O)c1ccc(C2c3c(n[nH]c3C)C(=O)N2c2ccc(C)cc2)cc1 (configuration not stated)	12%	>57
CN(C)C(CNC(=O)Nc1cccc(Cl)c1)c1cccnc1 (configuration not stated)	-7%	>57
Cc1nc2cc(Cl)ccc2n1CCO	13%	>57
CN[C@H]1[C@H]2[C@H]3CCN2C[C@@H]1O3	?	>57
Cc1cc(O)c(C(=O)c2ccccc2C(=O)O)cc1C	0%	>57
COc1cc(OC)c(C2=NOC(C(=O)Nc3c(C)nn(CC(=O)N4CCCC4)c3C)C2)cc1Cl (configuration not stated)	12%	>57
COc1ccc(CCNC(=O)c2c(N)n(CCN3CCOCC3)c3nc4ccccc4nc23)cc1	15%	>57
CC(=O)c1cc(CN2C(=O)c3ccccc3C2=O)cs1	7%	>57
C1CCN(c2nc(N3CCCC3)nc(N3CCNCC3)n2)C1	?	>57
c1cnn(-c2cc(N3CCOCC3)ncn2)c1	·	>57
CC1CN(C(=O)C(C)N2C(=O)c3ccccc3C2=O)CC(C)O1 (configuration not stated)	·	>57
CCO/C(C)=N/n1c2nc3ccccc3nc2c2c(=O)n(C3CCCC3)c(C)nc21	-4%	>57
[O-][N+](CCO)(CCO)c1ncnc2nc[nH]c12	0%[8 µM]	>57
CCOc1cc2c(C#N)c(N3CCOCC3)nc(N)c2c(N)n1	-12%	>57
Cc1cccc(CC2CC(=O)N(C3CCCCC3)C2=O)c1 (configuration not stated)	-23%	>57
CC(c1ccccc1F)n1cc(C(=O)Nc2ccc3nc[nH]c3c2)nn1 (configuration not stated)	-11%	>57
O=c1cc(-c2ccccc2)nc2nc(COc3ccccc3)[nH]n12	11%	>57
O=C(NCc1ccccc1)c1n[nH]nc1-c1ccccc1O	7%	>57
CCCn1c(C)nc2c(N3CCC(N4CCN(C)CC4)CC3)nc(C)nc21	11%	·
COC(=O)C1=C(C)NC(C)=C(C(=O)OC)C1C(=O)OC1CCCCC1=O (configuration not stated)	12%	>57
CCCC12CN3CC(C)(CN(C1)C3c1ccc3c(c1)OCO3)C2=O (configuration not stated)	6%	>57
COc1cccc(CN2CCCN(S(=O)(=O)c3ccc(Br)cc3)CC2)c1	-14%	>57
O=C(Nc1ccc2nc(-c3ccc(Br)o3)[nH]c2c1)c1cccs1	?	>57
CCCCOCCCNC(=O)N[C@@H](CC(C)C)C(=O)O	8%	>57
CN(Cc1nc(-c2ccncc2)no1)S(=O)(=O)c1ccc(Br)cc1	·	>57
CCOC(=O)N1CCC(N2C(=O)c3cc(C(=O)NC4CCCCC4)ccc3C2O)CC1 (configuration not stated)	-2%	>57
Cc1ccc(-n2ncc3c(=O)n(CC(=O)NCC4CCCO4)cnc32)cc1 (configuration not stated)	?	>57
Cc1cc2n(n1)C(c1ccco1)Nc1ccccc1-2 (configuration not stated)	-16%	>57
CCCNC(=O)OC[C@@H]1O[C@H](CCO/N=C\C[C@H]2C=C[C@H](OC(C)=O)[C@@H](COC(C)=O)O2)C=C[C@@H]1Oc1ccc(OC)cc1	-8%[8 µM]	·
O=C(CSc1ccc2nnc(-c3ccc(F)cc3)n2n1)N1CCCCC1	-4%	>57
Cc1cc(C(=O)CSc2nnc(NCc3ccccc3)s2)c(C)n1C	?	>57
COc1ccc(C2C(C(=O)N3CCCCC3)CCC(=O)N2c2cc(OC)c(OC)c(OC)c2)cc1 (configuration not stated)	3%	>57
Cc1csc(NC(=O)CSc2nnc(C)n2Cc2ccco2)n1	12%	>57
CN(C)c1ccc(-c2noc(C3CCN(S(=O)(=O)c4cccc(Cl)c4)CC3)n2)cc1	?	>57
Cc1nn(CC(=O)N2CCN(Cc3ccccc3)CC2)c(=O)c2ccccc12	?	>57

# Remaining list, next part
Compound	Anthrax LT inh	SmPrx2 inh
COc1ccc(Oc2ncc3nc(CCc4ccccc4)c(=O)n(C4CC4)c3n2)cc1	-10%	>57
CC(=O)c1c(N2CCN(Cc3ccccc3)CC2)[nH]c(-c2ccccc2)nc1=S	?	·
COc1ccc(Cn2c(C3CC3)nc3ccc(NC(C)=O)cc3c2=O)cc1	-8%	>57
Cc1ccc(S(=O)(=O)NC(C)C(=O)Nc2ccccc2C(=O)N2CCCC2)cc1 (configuration not stated)	-8%	>57
CC(=O)Nc1nc(C(=O)Nc2c(C)n[nH]c2C)cs1	-12%	>57
CC1CCN(S(=O)(=O)c2ccc3[nH]c(=O)cc(C(=O)O)c3c2)CC1	?	>57
Cc1coc2c(C)c3oc(=O)c4c(c3cc12)CCC4	-4%	>57
CC(C)CN1CCCC2(CCN(C(=O)c3cccc(F)c3)CC2)C1	?	>57
O=C(CCCN1C(=O)CCC1=O)Nc1ccc(Cl)c(C(F)(F)F)c1	-12%	>57
CC(C)n1cnc2cc(NCc3nc4ccccc4n3C)ccc21	?	>57
CCOC(=O)COc1ccc(S(=O)(=O)Nc2ccc3c(c2)OCO3)cc1	?	>57
O=C(CN1CCN(c2ncc(C(F)(F)F)cc2Cl)CC1)Nc1ccc2c(c1)OCO2	-4%	>57
Cc1cc(=O)[nH]c(SCC(=O)Nc2ccc(S(=O)(=O)N3CCCCC3)cc2)n1	21%	>57
CCC(C)(C(=O)NC1CCCCC1)N(Cc1ccco1)C(=O)c1ccc2c(c1)OCO2 (configuration not stated)	-7%	>57
c1ccc(NNc2ccccc2)cc1	?	·
Cc1ccc2nc3c(cc(C(=O)NCc4cccnc4)c(=N)n3C(C)C)c(=O)n2c1	7%	>57
CCc1ccc(N/C(SC)=C(/C#N)C(N)=O)cc1	8%	>57
Nc1c(C(=O)NC2CCCCC2)nsc1C(=O)OCC(=O)NC1CCCCC1	-20%	>57
COc1ccc(-c2noc(COc3ccc4c(c3)OCO4)n2)cc1OC	?	>57
CN1CCN(C(=O)c2ccccc2-c2ccccc2C(=O)O)CC1	-3%	>57
O=S(=O)(O)c1cc(O)c2c(O)c(N=Nc3cccc4ccccc34)c(S(=O)(=O)O)cc2c1	?	>57
C=CCNC(=O)c1ccc(Cl)cc1Cl	9%	>57
CC(C)CC12CN3CCN(CC(C3)/C1=N/O)C2	3%	·
CCC(C)NC(=O)CSc1nc2ccccc2c(=O)n1CCCC(=O)NCC1CCCO1 (configuration not stated)	0%	>57
CCOC(=O)C1CCN(C(=O)NC23CC4CC(CC(C4)C2)C3)CC1	17%	>57
C/C(Cl)=C\Cn1c(Nc2ccccc2)nc2c1c(=O)n(C)c(=O)n2C	1%	>57
CC1(C)Cc2cccc(OCC(=O)Nc3ccccc3N3CCOCC3)c2O1	?	>57
Cc1ccc(N2CC(C(=O)Nc3nnc(C)s3)CC2=O)cc1 (configuration not stated)	?	>57
Cc1ccc(N2C(=O)c3n[nH]c(C)c3C2c2cccnc2)cc1 (configuration not stated)	-5%	>57
CC(C)CCn1c(CN2CCN(C(=O)c3ccco3)CC2)nc2c1c(=O)n(C)c(=O)n2C	-8%	>57
CCCCSCc1[nH]c(=O)[nH]c1C(=O)CCCCC(=O)OCC	?	>57
COCc1nnc(SCC(=O)NC(C)c2ccccc2)n1-c1ccccc1 (configuration not stated)	-9%	>57
Cc1cc(-c2nnc3sc(-c4ccc(Cl)cc4Cl)nn23)n[nH]1	?	>57
CCOC(=O)c1cc(S(=O)(=O)NC2CCN(C(=O)OCC)CC2)cn1C	-11%	>57
Cc1ccc(O)c(Sc2cc(C)ccc2O)c1	1%	>57
CCN(CCN(C)C)C(=O)Cn1ncc2c1-c1cc(C)ccc1OC2	0%	>57

# Reprinted at random: 4 entries already listed.
Compound	Anthrax LT inh	SmPrx2 inh
Cc1ccc(N2C(=O)c3n[nH]c(C)c3C2c2cccnc2)cc1 (configuration not stated)	-5%	>57
CC(C)CCn1c(CN2CCN(C(=O)c3ccco3)CC2)nc2c1c(=O)n(C)c(=O)n2C	-8%	>57
Cc1ccc(N2CC(C(=O)Nc3nnc(C)s3)CC2=O)cc1 (configuration not stated)	?	>57
CCOC(=O)C1CCN(C(=O)NC23CC4CC(CC(C4)C2)C3)CC1	17%	>57

# Additional entries:
Compound	Anthrax LT inh	SmPrx2 inh
Cn1c(=O)c(C(=O)Nc2ncccn2)c(O)c2ccccc21	-2%	>57
COCCN(Cc1cc2cccc(C)c2n2nnnc12)C(=O)C(F)(F)F	-1%	>57
COc1ccc(-c2nc(CS(=O)CC(=O)NCCCN3CCCC3)c(C)o2)cc1OC (configuration not stated)	-3%	>57
O=C(Cn1nc(C(F)(F)F)c2c1CCC2)N1CCN(c2ccccc2)CC1	-1%	>57
CCn1cc(C(=O)NCCCOC)c(=O)c2cc(S(=O)(=O)N(C)C3CCCCC3)ccc21	-29%	>57
Clc1ccc(Nc2nc(-c3cccs3)cs2)nc1	6%	>57
Cc1nc(SC(C)C)[nH]c(=O)c1Cc1ccccc1	-11%	·
COc1cc(-c2nc3cnccn3c2Nc2ccc3c(c2)OCCO3)ccc1O	0%	>57
COc1ccccc1N1CCN(C(=O)CCCC2=NS(=O)(=O)c3ccccc3N2)CC1	-10%	>57
OCCN(CC(O)Cn1ccc2ccccc21)CC(O)Cn1ccc2ccccc21 (configuration not stated)	3%	>57
Cc1ccc(/C(O)=C2\C(=O)C(=O)N(CC(C)O)C2c2cccc(F)c2)cc1 (configuration not stated)	-8%	>57
N#Cc1c(C(F)(F)F)cc(-c2ccco2)nc1SCc1ccncc1	-25%	>57
COc1ccccc1-c1nc(-c2cccc(C)c2)no1	?	>57
COCCn1nnnc1CN1CCOCC1	-2%	>57
Cc1cccc(C(CC(=O)N2CCCC2)c2ccccc2)c1O (configuration not stated)	17%	>57
CC(C)Cc1nc(SCC(=O)NCc2ccccc2)n[nH]1	·	>57
COc1ccc(C2N(c3cc(Cl)ccc3OC)C(=O)C3CCCN32)c(OC)c1 (configuration not stated)	-8%	>57
COc1ccc(C(=O)CSc2ncn[nH]2)cc1OC	-2%	·
O=C(Sc1nnnn1C1CCCCC1)c1cccs1	6%	>57
O=C(OCCN1C(=O)c2ccccc2C1=O)c1cccc(OC(F)F)c1	-14%	>57
COc1ccc(-c2ccc(=O)n(CC(=O)Nc3cccc(O)c3)n2)cc1OC	-2%	>57
CCOCCCNC(=O)C(c1ccc(OC)cc1)N(Cc1ccc2c(c1)OCO2)C(=O)CNC(C)=O (configuration not stated)	5%	>57

# Screening results as filed in PubChem.
